Screening results as filed in PubChem.
Vif A3G: HIV-1 Vif–A3G interaction blockers – biochemical, TR-FRET, GST-Vif 1-94, biotin-A3G peptide, dose response retest, primary screen (AID 1117319) | TR-FRET GST-Vif / biotin-A3G peptide binding; higher % means a stronger effect; test concentration not given here; strong numbers were not always called active | one-dose inhibition, %; IC50 in µM for titrated hits | hit rate 0.57% among 260,000;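 active means above the screen mean plus three standard deviations and confirmed in dose response; inconclusive means results disagree or hit not tested in dose response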;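 further: Vif residues 1-94 fused to GST binding biotinylated APOBEC3G peptide 110-148; 0% = full assay without inhibitor and 100% = GST in place of GST-Vif; retest series ran down from 100 µM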
Calb FLC: affects C. albicans growth with fluconazole; hit rate 0.57% among 300,000; AID 1979; C. albicans CaCi-2 (fluconazole-resistant clinical isolate) + fluconazole, Alamar Blue growth, 48 h; growth inhibition, % (test concentration not listed);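 active means most replicates above 75%; inconclusive means exactly half above 75%; inactive means most below 75%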;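 further: all wells also contain fluconazole at 8 µg/ml as a sub-toxic cotreatment; 0% = median of DMSO wells and 100% = median of geldanamycin control wells; wells of about 8 µL received 7.5 nL stock; the first replicate is given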
T cruzi repl: blocks replication of Trypanosoma cruzi; T. cruzi beta-gal in NIH3T3, luminescence, 90 h; inhibition, % (concentration not given with the values); hit rate 1.4% among 300,000; AID 1885;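 active means mean inhibition across valid replicates above about 55%, limit read from the data; inconclusive means mean below that limit but half or more replicates reach it; inactive means mean below it, under half of replicates reach it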;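 further: signal also drops with host cell toxicity which is not excluded here; 0% = plate median of DMSO wells and 100% = zero luminescence signal; higher percent means less beta-gal luminescence so fewer parasites; stock transfer was 50 nL into about 50 µL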
Ecoli rRNA inh: inhibitors of bacterial rRNA selective over humanized ribosomes; GFP signal change (wild-type ribosome), % (concentration not given with the values); hit rate 1.6% among 350,000; E. coli WT GFP vs humanized-ribosome RFP mutants, fluorescence, 24 h; hits give low values; DMSO median 0, no signal -100; AID 720706;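 active means significant combined selectivity score with lowered wild-type GFP, culture density cut under 30%, mutant RFP and density less affected; inactive means any of these conditions unmet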; further: one replicate is shown; some compounds called inactive have numbers as strong as hits
Beta apoptosis: blocks beta cell apoptosis; INS-1E cytokine-induced death, ATP luminescence, 48 h; percent of positive-control rescue, neutral wells zero; protection from apoptosis, % (concentration not given with the values); hit rate 0.8% among 300,000;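 active means all replicates at 75% or more, or half of them and the mean; inconclusive means half reach 75% but not the mean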;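 further: 0% = cytokine-treated negative control wells and 100% = positive control rescue; higher means more ATP so stronger rescue from cytokine killing; wells of about 40 µL received 100 nL stock; the first replicate is given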
RanGTP-Imp inh: inhibitors of RanGTP-importin-beta interaction, primary screen, biochemical, FRET, CFP-Ran, YFP-importin-beta, homogeneous; hit rate 1.1% among 300,000; cell-free CFP-Ran/YFP-importin-beta FRET ratio; inhibition, % (no concentration beside the values); AID 2216;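 active means most replicates above 15%; inconclusive means exactly half above 15%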;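 further: 0% = DMSO wells and 100% = Ran loaded with GDP instead of GTP; wells of about 40 µL received 100 nL stock; the first replicate is given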
AF4-AF9 inh: blocks AF4 peptide binding to human AF9. AlphaScreen, biotin-AF4 peptide binding to FLAG-AF9. AID 651704. inhibition, % at 10 µM. hit rate 0.47% among 350,000. P42568;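 active means every replicate reaching a set inhibition limit, whatever the replicate mean, cut at about 25% in these data; inconclusive means mean inhibition reaches that limit but some replicates miss it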;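 further: 0% = plate neutral control median and 100% = total signal loss; the record names both 10 and 1 µM as test concentration; the first replicate is given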
Target sequence (P42568 whole entry, looked up): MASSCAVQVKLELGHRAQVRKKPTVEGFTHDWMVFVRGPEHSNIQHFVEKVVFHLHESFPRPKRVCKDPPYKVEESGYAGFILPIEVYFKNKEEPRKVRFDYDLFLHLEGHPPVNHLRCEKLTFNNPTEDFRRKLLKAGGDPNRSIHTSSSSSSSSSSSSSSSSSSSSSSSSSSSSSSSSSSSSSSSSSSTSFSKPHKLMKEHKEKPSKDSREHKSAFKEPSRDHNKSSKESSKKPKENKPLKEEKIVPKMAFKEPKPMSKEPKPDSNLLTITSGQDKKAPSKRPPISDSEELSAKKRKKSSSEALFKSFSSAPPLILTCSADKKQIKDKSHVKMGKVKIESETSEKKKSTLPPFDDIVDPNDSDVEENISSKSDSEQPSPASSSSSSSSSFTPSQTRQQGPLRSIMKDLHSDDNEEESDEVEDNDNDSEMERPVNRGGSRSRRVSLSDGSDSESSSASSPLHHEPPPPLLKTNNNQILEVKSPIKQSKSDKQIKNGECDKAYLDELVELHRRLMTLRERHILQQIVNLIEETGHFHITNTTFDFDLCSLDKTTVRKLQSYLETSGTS
A1 inh: inhibitors of the anti-apoptotic protein A1, read as caspase activation; AID 2462; hit rate 0.066% among 330,000; caspase activation, % (no concentration beside the values); MEF A1-2A-BIM cells, Caspase-Glo 3/7 luminescence, 3 h; percent of clofoctol response, vehicle zero;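 active means over half of replicate activation scores above 10%, or exactly half above 10 with the replicate mean above 10; inconclusive means replicate mean below 10 yet half the replicates above 10; inactive means over half of replicates below 10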;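 further: wells of about 30 µL received 50 nL stock; many hits fall short of the cut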
Ecoli rRNA inh OD600: second read-out of Ecoli rRNA inh, no call of its own (marks repeat the call); OD600 change, %; measured here: OD600 growth;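 optical density of the mix in the first replicate; 0 = DMSO median and -100 = no signal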
Ecoli rRNA inh RFP: recorded beside Ecoli rRNA inh, whose call it bears; RFP signal change, %; measured here: RFP humanized mutant strains;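 first replicate; 0 = DMSO median and -100 = no signal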
Starred values were filed as active, the others as inactive; ? = inconclusive; . = no result given.

SMILES	Vif A3G	Calb FLC	T cruzi repl	Ecoli rRNA inh	Ecoli rRNA inh OD600	Ecoli rRNA inh RFP	Beta apoptosis	RanGTP-Imp inh	AF4-AF9 inh	A1 inh
CCC(C)NC(=O)c1ccc2c(SCC(=O)O)c3c(nc2c1)CCCC3 (stereo unspecified)	8%	-5	2	.	.	.	-4	3.5	.	-0.2
O=C(CN1CCOCC1)Nc1ccc(N2CCN(c3ccccc3)CC2)c(F)c1	0%	54	15	0	6	0.1	-4	2.7	2.9	-0.4
O=C1CSC(c2ccccn2)N1c1ccc2ccccc2c1 (stereo unspecified)	-5%	-9	-33	.	.	.	0	?	.	-0.4
CN(Cc1ccccc1)c1nc(-c2ccc([N+](=O)[O-])cc2)nc2ccccc12	-9%	-1	23	.	.	.	23	-3.2	.	-1.2
O=C1CCCN1CC(O)CS(=O)(=O)c1ccccc1 (stereo unspecified)	-2%	2	-22	.	.	.	-3	0.1	.	0.1
COc1ccc(/C=C/C(=O)Nc2nonc2NC(C)=O)cc1	12%	1	-15	.	.	.	-2	-1.9	.	0.0
OC(COc1ccc2c(c1)OCO2)CN1CCCCC1 (stereo unspecified)	3%	-6	-8	15	11	0.6	-5	8.3	-1.0	2.0
C=CCc1ccc(OCCN2CCc3ccccc3C2)c(OC)c1	-2%	-2	-14	-24	-35	-1.9	-5	-0.9	8.8	0.2
Cc1cc2ccccc2cc1CN1CCOCC1	-2%	-9	-5	.	.	.	-6	3.4	.	-0.2
O=C(NC1CCCCNC1=O)c1ccccc1 (stereo unspecified)	.	-2	-22	21	0	6.5	3	-2.0	-1.6	0.0
COc1cc(/C=N/NC(=O)c2sc3nc(C)cc(C)c3c2N)ccc1O	-6%	47	2	-9	7	-1.0	25	?	-0.3	0.2
CCCCC1=CC2=CC(=O)C(C)(OC(=O)CC)C(=O)C2=CN1Cc1ccc(OC)cc1 (stereo unspecified)	19%	15	34	11	15	3.9	1	4.8	6.7	0.6
N=C1/C(=C\c2ccc(-c3cc(Cl)cc(Cl)c3)o2)C(=O)N=C2SC=C(c3ccccc3)N12	17%	-2	-8	.	.	.	1	3.9	.	2.9
Cc1ccc2cc(CCNC(=O)c3cccc([N+](=O)[O-])c3)c(=O)[nH]c2c1	-6%	12	9	10	4	-0.1	9	0.3	1.2	0.3
CCCOc1cccc(NC(=O)c2cc(C)oc2C)c1	-1%	4	7	.	.	.	9	-1.1	.	0.0
O=S(=O)(N1CCCCC1)N1CCN(c2ccc(F)cc2)CC1	-1%	1	4	.	.	.	1	-0.9	.	0.8
CCc1cccc(C)c1N1C(=O)CC(C)(C)CC1=O	-14%	-3	-7	4	8	-0.1	1	-0.9	-6.4	-0.3
COc1ccc(-n2ncc3c2CC(C)(C)CC3NC(=O)CCn2nc(C)cc2C)cc1 (stereo unspecified)	.	-7	0	-9	-9	1.2	0	0.7	3.8	0.6
CC(=O)Oc1ccc(N2C(=O)C3C(C2=O)C2C=CC3C23CC3)cc1[N+](=O)[O-] (stereo unspecified)	7%	-16	-12	11	13	3.1	-2	2.5	0.7	0.7
O=C(COC(=O)c1ccc(S(=O)(=O)N2CCCC2)cc1)Nc1cccc(Br)c1	-10%	.	.	4	10	-1.6	-6	.	-3.9	0.4
CCC1(c2ccccc2)NC(=O)N(CC(=O)NCCN2C(=O)S/C(=C\c3cccnc3)C2=O)C1=O (stereo unspecified)	-9%	-1	-24	11	13	1.0	-7	3.0	-6.0	1.5
NS(=O)(=O)c1ccc(CCNC(=O)c2cc(-c3ccccc3)nc3ccccc23)cc1	-15%	10	19	.	.	.	2	-1.2	.	0.1
O=C(O)c1ccc(/C=N/NC(=O)c2ccc3c(c2)OCCO3)cc1	.	0	-12	0	-8	-4.4	5	-2.9	0.6	-2.3
CC(=O)c1ccc(N2CCN(C(=O)c3cc4c(-c5ccccc5F)nn(C)c4s3)CC2)cc1	-4%	-8	6	-1	1	-6.7	9	?	-4.9	0.3
COCCCn1c(=O)c2ccccc2n(CC(=O)NCCC2=CCCCC2)c1=O	.	3	-2	8	1	2.7	.	5.2	-2.5	-0.6
COc1ccc(OCCSc2nnc(Cc3cccc4ccccc34)n2N)cc1	6%	-2	0	.	.	.	-10	2.4	.	0.5
O=C(Cc1ccc(S(=O)(=O)N2CCOCC2)s1)NCCC(c1ccccc1)c1ccccc1	-14%	1	3	.	.	.	.	-4.7	.	0.7
CN(C(=O)COc1ccccc1C(=O)NCCOc1ccccc1)c1ccccc1	-3%	-7	-33	-19*	-12*	6.4*	37	-2.0	-0.5	0.0
CCCS(=O)(=O)N1CCN(CCCc2ccccc2)CC1	1%	-6	14	1	0	-4.3	-8	2.6	-37	-0.6
Cc1ccc(NC(=O)CCc2nc3sc4c(c3c(=O)[nH]2)CCCC4)nc1	-4%	-1	10	.	.	.	-5	-12	.	-0.3
Cc1onc(-c2c(Cl)cccc2Cl)c1C(=O)ONC(=O)c1ccccc1	-2%	-2	-11	25	12	0.9	3	-0.6	.	-0.1
CCOP(=O)(/C(C#N)=C(/O)c1ccccc1)c1ccccc1 (stereo unspecified)	2%	-2	-14	2	-3	0.7	.	7.5	2.7	0.3
COc1cccc2c1Oc1ncccc1N(C(=O)CCC(=O)NCc1cccc(C)c1)C2	.	3	17	3	-3	-0.3	-11	5.9	0.7	0.8
CN1CCc2c(OCc3ccc(F)cc3)cccc2C1=O	-1%	7	8	.	.	.	-2	-1.1	-3.0	0.5
Cc1ccc(NC(=O)CN2CCOCC2)cc1C	.	6	-7	-4	-3	-0.1	0	-0.4	-0.8	0.3
COc1ccc(CNC(=O)c2ccc(Cl)c(S(=O)(=O)N3CCOCC3)c2)cc1OC	-1%	.	.	4	-1	2.0	1	.	.	0.2
COc1ccc(C2NC(=O)N(CCCC(=O)O)C(C)=C2C(=O)OCc2ccccc2)cc1 (stereo unspecified)	.	3	0	-6	5	-5.0	3	1.3	-2.3	0.0
CSc1nc2c(c(=O)[nH]1)C(c1cccc(Cl)c1)CC(=O)N2 (stereo unspecified)	-7%	-2	3	12	14	-2.3	-3	-0.1	2.6	?
Cc1cccc2c(N=O)c(O)[nH]c12	21%	-5	4	1	-2	2.6	-10	-3.7	2.6	-0.1
Cc1nnsc1C(=O)N1CCCC(N2CCN(c3ccc(F)cc3)CC2)C1 (stereo unspecified)	.	7	-9	2	10	-2.7	-6	-4.3	0.3	1.9
Nn1c(SCC(=O)Nc2ccc(S(N)(=O)=O)cc2)nnc1-c1ccco1	3%	-4	-2	4	4	1.6	-5	-0.8	-3.2	-0.8
COc1ccc(Cc2nc(=S)[nH][nH]2)cc1Br	?	2	9	9	7	-2.4	-3	-0.9	-7.8	0.1
CCC(=O)Nc1ccc(S(=O)(=O)Nc2ccccn2)cc1	3%	-12	-5	10	6	-3.6	-2	-2.0	0.0	0.1
O=C(CN1C(=O)c2ccccc2C1=O)Nc1cc(C(=O)O)cc(C(=O)O)c1	0%	-1	5	9	1	-1.6	3	-0.3	2.5	-0.1
O=C(CC1(O)C(=O)Nc2ccccc21)c1cccc(-n2cccc2)c1 (stereo unspecified)	2%	-44	5	-2	-4	0.9	-13	-2.0	9.2	-0.6
COc1ccc(-c2noc(CCC(=O)NCCc3ccccc3)n2)cc1	-6%	-57	-2	-6	-14	-0.1	-3	-1.4	-2.2	-0.4
Cc1cc2ncn(C(=O)N3CCCCCC3)c2cc1C	.	-2	4	.	.	.	-2	-0.2	.	-0.5
CC(C)Oc1ccc(N2CC(C(=O)NC3=NCCS3)CC2=O)cc1 (stereo unspecified)	.	4	-59	6	0	0.1	-1	2.8	4.7	-0.5
CC(=O)Nc1ccc(NS(=O)(=O)c2cc(Cl)ccc2Cl)cc1	?	1	-15	8	12	-1.0	-3	3.1	-6.0	-0.2
Cc1ccc(C)c(N(CC(=O)N/N=C/c2ccc(-c3ccc([N+](=O)[O-])cc3)o2)S(=O)(=O)c2ccccc2)c1	25%	-13	72*	6	8	-4.2	6	-63	-10	-0.2
Nc1ccccc1SCC(=O)Nc1ccc2c(c1)OCCO2	0%	-3	-5	3	-3	-0.5	3	-2.9	-1.8	0.6
NC(=O)c1c(NC(=O)c2cccc(N3C(=O)CCC3=O)c2)sc2c1CCCCC2	-18%	.	-8	2	4	1.9	1	.	0.8	-0.3
O=C1c2ccccc2C(=O)N1CCn1nc(Cl)nc1Cl	3%	1	-7	.	.	.	-2	2.4	.	-0.1
COc1ccccc1CNC(=O)c1oc2ccc(S(=O)(=O)N3CCOCC3)cc2c1C	-11%	-4	10	4	2	-4.0	5	1.9	0.5	0.3
CC1CCN(c2c(NCc3ccc(C(=O)NCC4COc5ccccc5O4)cc3)c(=O)c2=O)CC1 (stereo unspecified)	.	13	5	-5	-12	4.9	0	-0.9	6.6	-0.6
CCCCn1c(N)c(N(CCC(C)C)C(=O)COC(=O)c2ccccc2)c(=O)[nH]c1=O	18%	10	2	8	3	0.7	-4	-1.2	-1.2	-0.2
O=C(O)c1ccccc1NCc1cccs1	-4%	-5	-6	9	2	6.1	.	1.0	-2.4	1.3
COc1ccccc1OCC(=O)NNC(=O)C(=O)N1CCCC1	7%	0	-22	.	.	.	-6	2.5	.	-0.2
O=C(c1ccco1)n1nc(NCc2ccccc2)nc1NCc1ccccc1	2%	-10	-2	.	.	.	3	-2.1	.	-0.3
COCC(C)n1c(C)cc(C(=O)CSc2nc3ccccc3c(=O)[nH]2)c1C (stereo unspecified)	0%	-2	-15	.	.	.	11	6.9	.	0.7
(continued)
SMILES	Vif A3G	Calb FLC	T cruzi repl	Ecoli rRNA inh	Ecoli rRNA inh OD600	Ecoli rRNA inh RFP	Beta apoptosis	RanGTP-Imp inh	AF4-AF9 inh	A1 inh
COC(=O)c1sc(S(=O)(=O)Nc2ccc(C)cc2)c(C(=O)OC)c1C	7%	-6	-20	.	.	.	-3	-0.3	.	0.4
COc1cccc(N2CCN(C(=O)c3ccc(CS(=O)c4ccccc4C)o3)CC2)c1 (stereo unspecified)	.	16	8	-6	-13	-2.2	7	2.1	7.5	0.4
Cc1ccc(N(CC(=O)NCc2ccc(F)cc2)S(=O)(=O)c2c(C)n[nH]c2C)cc1	1%	1	-1	-2	-9	-1.7	4	5.8	0.6	0.1
COCCn1c(C)cc(C(=O)COC(=O)CNC(=O)c2ccccc2)c1C	.	15	-9	-5	-3	-6.1	-3	1.4	2.4	-1.2
COc1ccc(/C(C)=N/Nc2nccnc2Cl)cc1	19%	.	.	2	13	1.1	1	.	0.6	-3.4

These rows are one share of the data; rates above refer to the full screens.
